KB-V1 MDR tox: kills drug-selected multidrug resistant KB-V1 cells; KB-V1 MDR cells viability, CellTiter-Glo, 72 h; Potency, µM (doses to about 46.1 µM), without a hit: top-dose activity change, negative = cytotoxicity, usual class: cytotoxic; actives 3.4% (n = 400,000); also: potency is read from the fitted curve at half-maximal effect; % is scaled to controls: 0 for no effect and ±100 for the full control effect; nearly all actives have a fitted effect of over 60% in size
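KB-V1, DMEM (no phenol red) + 10% FBS; cpd pin-transferred, titration series; 72 h, 37 degrees C; CellTiter-Glo, luminescence. Data normalized, curve-fit.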
D3 antag: antagonists of human D3 dopamine receptor | P35462 | D3R cells, DiscoveRx beta-arrestin luminescence, antagonist mode; hits give low values | max response, negative = inhibition, % | actives 2.5% (n = 360,000); in the data active = max response below about -50%; inconclusive = no clear call, values can overlap the other calls; also: % is scaled to controls: 0 for no effect and ±100 for the full control effect; mostly tested at two doses, the higher about 12 µM
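Cells expressing the human receptor were seeded at 1500 cells/well, incubated overnight at 37 degrees C in 5% CO2, then exposed to library compounds with dopamine controls for 90 minutes at 37 degrees C before luminescent detection.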
GLP1R inv ag: GLP-1 receptor (human) inverse agonism. P43220. actives 1.6% (n = 410,000). Potency, µM (top dose mostly 38.3 µM), without a hit: at the top dose activity change, negative = inhibition, hits mostly inhibitors. HEK293 GLP-1R CRE-luciferase, luminescence, 24 h; GLP-1R form is constitutively active; also: potency is read from the fitted curve at half-maximal effect; % is scaled to controls: 0 for no effect and ±100 for the full control effect; nearly all actives have a fitted effect of over 55% in size
Target sequence (P43220 whole entry, looked up): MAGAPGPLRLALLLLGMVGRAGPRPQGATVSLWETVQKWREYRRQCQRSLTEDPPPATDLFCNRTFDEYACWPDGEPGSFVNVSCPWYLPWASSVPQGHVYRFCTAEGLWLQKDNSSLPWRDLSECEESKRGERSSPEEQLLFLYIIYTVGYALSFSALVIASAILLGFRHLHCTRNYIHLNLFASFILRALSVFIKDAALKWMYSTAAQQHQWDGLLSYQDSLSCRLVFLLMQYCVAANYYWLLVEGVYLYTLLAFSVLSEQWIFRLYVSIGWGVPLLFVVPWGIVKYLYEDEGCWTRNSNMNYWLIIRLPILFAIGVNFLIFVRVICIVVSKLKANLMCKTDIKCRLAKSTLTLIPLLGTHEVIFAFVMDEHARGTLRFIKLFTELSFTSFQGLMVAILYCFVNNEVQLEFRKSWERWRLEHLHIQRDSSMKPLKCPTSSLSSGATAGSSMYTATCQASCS
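Constitutively active GLP-1R drives a cAMP-responsive luciferase in stably transfected HEK293 cells; test compounds are added after overnight (12 h) attachment and left 24 hr, and signal loss in luminescence marks inhibition.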
aSyn yeast inh: alpha-synuclein toxicity inhibition in yeast; Yeast expressing alpha-synuclein, growth rescue, BacTiter-Glo, 24 h; Potency, µM (top dose mostly 46.1 µM), without a hit: at the highest dose growth rescue (activation), most hits filed as activators; actives 0.14% (n = 370,000); also: potency is read from the fitted curve at half-maximal effect; % of control where 0% means no effect; nearly all actives have a fitted effect of over 65% in size
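Screening used galactose-induced yeast with toxic alpha-synuclein levels, exposed to compound for 24 hr at 30 deg C. Cell growth, read with BacTiter-Glo luminescence, gave the measured signal.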
GLP-1R agonist: activates the human GLP-1 receptor; P43220; HEK293 GLP-1R CRE-luciferase, luminescence, 4-6 h; cells express a hypersensitive GLP-1R form; Potency, µM (highest dose often 45.6 µM), for inactives: at the top dose activation, usual class: activators; actives 0.007% (n = 380,000); AID 624172; also: potency is read from the fitted curve at half-maximal effect; % of control where 0% means no effect
GLP1R cytotox: cytotoxic in the GLP-1 receptor inverse agonist counter-screen | HEK293 cAMP-luciferase reporter cells, luminescence, 24 h | Potency, µM (top dose mostly 38.3 µM), for the others: at the top dose activity change, negative = inhibition, actives largely listed as inhibitors | actives 0.13% (n = 410,000);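 also: loss of luciferase light is scored as toxicity; potency is read from the fitted curve at half-maximal effect; % is scaled to controls: 0 for no effect and ±100 for the full control effect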
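Here, cytotoxicity is scored as loss of luminescence. The MLSMR collection was tested on cells seeded in medium containing 10% Nu serum, with a 24 hr compound exposure preceded by 12 hours of culture.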
DRD3 agonist: agonists of human D3 dopamine receptor; P35462; D3R DiscoveRx beta-arrestin cells, luminescence, 90 min; actives 0.58% (n = 410,000); max activation, %; in the data active = max activation above about 30%; also: 0% is about no effect; mostly tested at two doses, the higher about 12 µM
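Cells at 1500/well, incubated overnight, then treated with pinned compounds (dopamine as control) for 90 min at 37 degrees C. DiscoveRx reagent added for 30 - 60 minutes at room temperature; luminescence read.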
TDP43 rescue: TDP-43 toxicity inhibition in yeast; AID 652104; Potency, µM (titrated, usually from 46.1 µM), inactives show at the highest dose growth rescue (activation), hits mostly activators; TDP-43 expressing yeast growth rescue, BacTiter-Glo, 24 h; actives 1.8% (n = 410,000); also: potency is read from the fitted curve at half-maximal effect; % of control where 0% means no effect; nearly all actives have a fitted effect of over 50% in size
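Yeast expressing TDP-43 (pregrown in raffinose, seeded at OD600=0.02 in galactose medium) exposed to compounds 24 hr at 30 deg C. Growth read by BacTiter-Glo luminescence; rescue of toxicity appears as increased signal.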
The depositor's hits bear a star; ? = inconclusive; . = not tested or not shown; [ ] = another dose, or the depositor's remark. Unless noted, calls follow the shape of the dose curve; as a rule, active = well fitted curve in the direction sought with a large enough effect; inconclusive = small, poorly fitted or top-dose-only effect, or another doubt; inactive = no such curve, though single readings can be large; an effect the other way counts as inactive or inconclusive. Some of the compounds tested, so the mix of outcomes need not match the whole.

Start of the data: the first 6 entries, ahead of the listing:
Under each structure – KB-V1 MDR tox, D3 antag, GLP1R inv ag, aSyn yeast inh, GLP-1R agonist, GLP1R cytotox, DRD3 agonist, TDP43 rescue
1	CCCCCSc1nc(O)cc(=O)[nH]1
    ?, -11, 8%, -1%, -14%, 9%, -4, -23%
2	CC(CNc1nc2ccccc2c2nc(-c3ccccc3)nn12)c1ccccc1 (stereo not given)
    6%, ., -28%, ., ., -20%, -12, -9%
3	O=C1CNCc2[nH]c3ccccc3c2N1c1ccccc1
    23µM*, -8, 43%[activator], -3%, 6%, 8%, -3, -2%
4	COc1ccc2cc3cc(C(=O)NCCN4CCc5ccccc5C4)sc3nc2c1
    ?, -93*, -4%, -1%, 0%, 7%, -28, -25%
5	N#Cc1ccc(-c2cccnc2)nc1SCc1ccc(Cl)cc1Cl
    ?, 7, -1%, 3%, 6%, -16%, 1, 7%
6	CCOC(=O)c1cc(Br)c(=O)n2ccccc12
    15µM*, -14, 0%, -2%, 22%, 26%, -1, 16%

All compounds of this part, repeating the preview:
Under each structure – KB-V1 MDR tox, D3 antag, GLP1R inv ag, aSyn yeast inh, GLP-1R agonist, GLP1R cytotox, DRD3 agonist, TDP43 rescue
1	CCCCCSc1nc(O)cc(=O)[nH]1
    ?, -11, 8%, -1%, -14%, 9%, -4, -23%
2	CC(CNc1nc2ccccc2c2nc(-c3ccccc3)nn12)c1ccccc1 (stereo not given)
    6%, ., -28%, ., ., -20%, -12, -9%
3	O=C1CNCc2[nH]c3ccccc3c2N1c1ccccc1
    23µM*, -8, 43%[activator], -3%, 6%, 8%, -3, -2%
4	COc1ccc2cc3cc(C(=O)NCCN4CCc5ccccc5C4)sc3nc2c1
    ?, -93*, -4%, -1%, 0%, 7%, -28, -25%
5	N#Cc1ccc(-c2cccnc2)nc1SCc1ccc(Cl)cc1Cl
    ?, 7, -1%, 3%, 6%, -16%, 1, 7%
6	CCOC(=O)c1cc(Br)c(=O)n2ccccc12
    15µM*, -14, 0%, -2%, 22%, 26%, -1, 16%
7	O=C(CNC(=O)c1ccc(-c2ccccc2)cc1)OCc1ccc(Br)cc1
    0%, -5, 29%, 6%, 0%, 9%, 2, 7%
8	C/C(=N\NC(=O)c1ccccc1[N+](=O)[O-])c1c(O)cc(C)oc1=O
    -8%, -5, -3%, -4%, 2%, 16%, 11, -31%[inhibitor]
9	Cc1cccc(/C=C2/Sc3ccc(C(=O)N4CCOCC4)cc3NC2=O)c1
    -7%, 2, 38%[activator], 2%, -3%, 10%, -1, 8%
10	COc1ccc([N+](=O)[O-])cc1N(CC(=O)N1CCN(Cc2ccccc2)CC1)S(C)(=O)=O
    -2%, -14, 4%, -4%, 4%, -2%, -4, 27%
11	C=CCNC(=O)NC(=O)CSc1nnc(C(F)(F)F)n1C
    12%, 18, -5%, 5%, 4%, -14%, 1, 12%
12	Cc1ccc(S(=O)(=O)N(C)C)cc1NC(=O)CSc1nc2ccccc2c(=O)n1CC1CCCO1 (stereo not given)
    ?, 3, -1%, 8%, 1%, -26%, -2, 19%
13	COc1ccc(CCNc2ncnc3sc(C)cc23)cc1OC
    ?, 20, 4%, -9%, 20%, 2%, 7, 10%
14	O=C(CNC(=O)c1ccc(Br)cc1)NCC(=O)OCC(=O)c1ccccc1
    18%, 2, 15%, 1%, 3%, 0%, 12, -2%
15	CCOc1cc(S(=O)(=O)NCCN2CCOCC2)c(C)cc1C
    -1%, 12, 2%, -5%, 3%, -10%, -3, -20%
16	O=C1N(Cc2ccccc2)c2ccccc2C12OCCO2
    6%, -16, 6%, 13%, 11%, -5%, -8, 9%
17	CC(C)CCn1c(=O)c2ccccc2c2ccccc2c1=O
    -9%, -9, 10µM*, -12%, -12%, -14%, 4, 2%
18	CC(C(=O)Nc1cc([N+](=O)[O-])ccc1Cl)N1CCN(c2ccccc2)CC1 (stereo not given)
    ?, -6, 12%, -7%, 3%, 6%, -8, -18%
19	Cc1ccc(CNC(=O)C2(S(=O)(=O)c3ccccc3)CC=CC2)cc1
    7%, -11, 6%, -5%, 5%, 0%, -2, -14%
20	CCOc1ccc(NC(=O)C(CC(C)C)N2Cc3ccccc3C2=O)cc1 (stereo not given)
    -6%, ., -19%, ., ., -7%, -9, 5%

Later entries
Under each structure – KB-V1 MDR tox, D3 antag, GLP1R inv ag, aSyn yeast inh, GLP-1R agonist, GLP1R cytotox, DRD3 agonist, TDP43 rescue
21	Cc1c(OC(C)C(=O)N2C[C@H]3C[C@@H](C2)c2cccc(=O)n2C3)ccc2c3c(c(=O)oc12)CCCC3 (stereo not given in full)
    3%, 9, 13%, 5%, 13%, 4%, 2, 2%
22	COC(=O)c1scc(C)c1N/N=C(\C)c1cc(F)c(Cl)cc1F
    23%, 3, -4%, 1%, -2%, 3%, -5, -3%
23	O=C(N/N=C/c1ccc([N+](=O)[O-])cc1)c1ccc(NS(=O)(=O)c2cccs2)cc1
    8%, 0, -7%, 4%, -6%, 4%, -1, 7%
24	COC(=O)c1sc(SC)c2c1CC(C)(C)C/C2=N/O
    ?, 3, 8%, -4%, 28%, 39%[activator], 25, 11%
25	c1ccc(-c2nc(CSc3n[nH]c(-c4cccs4)n3)cs2)cc1
    -21%, 20, -9%, -20%, 1%, 0%, 10, ?
26	COc1cccc(-c2nc(CS(=O)CC(=O)NCc3ccc(F)cc3)c(C)o2)c1 (stereo not given)
    0%, -13, -22%, 6%, -1%, -2%, -1, -2%

Part of the list above in order of formula weight, highest first:
Under each structure – KB-V1 MDR tox, D3 antag, GLP1R inv ag, aSyn yeast inh, GLP-1R agonist, GLP1R cytotox, DRD3 agonist, TDP43 rescue
21	Cc1c(OC(C)C(=O)N2C[C@H]3C[C@@H](C2)c2cccc(=O)n2C3)ccc2c3c(c(=O)oc12)CCCC3 (stereo not given in full)
    3%, 9, 13%, 5%, 13%, 4%, 2, 2%
23	O=C(N/N=C/c1ccc([N+](=O)[O-])cc1)c1ccc(NS(=O)(=O)c2cccs2)cc1
    8%, 0, -7%, 4%, -6%, 4%, -1, 7%
18	CC(C(=O)Nc1cc([N+](=O)[O-])ccc1Cl)N1CCN(c2ccccc2)CC1 (stereo not given)
    ?, -6, 12%, -7%, 3%, 6%, -8, -18%
20	CCOc1ccc(NC(=O)C(CC(C)C)N2Cc3ccccc3C2=O)cc1 (stereo not given)
    -6%, ., -19%, ., ., -7%, -9, 5%
19	Cc1ccc(CNC(=O)C2(S(=O)(=O)c3ccccc3)CC=CC2)cc1
    7%, -11, 6%, -5%, 5%, 0%, -2, -14%
24	COC(=O)c1sc(SC)c2c1CC(C)(C)C/C2=N/O
    ?, 3, 8%, -4%, 28%, 39%[activator], 25, 11%
